gsp antag: antagonists of gsp mutant (McCune-Albright syndrome). hit rate 0.4% among 340,000. Potency, µM (series often up to 76.9 µM), inactives show at the top dose activity change, negative = inhibition, usual class: inhibitors. gsp-mutant cells, cAMP HTRF, 30 min; control for the full effect not named in the record; active = falling curve of any shape with a large fitted effect; inconclusive = falling curve, mostly with a smaller effect; inactive = flat or rising curve; cell line not stated here;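 note: intracellular cAMP measured with PDE inhibitor Ro 20-1724 present during compound exposure; potency is the fitted concentration of half-maximal effect; % is set by controls: 0 for no effect and ±100 for the full control effect; nearly all actives have a fitted effect of over 65% in size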
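HTRF cAMP measurement after 30 min RT detection following 30 min, 37C compound treatment alongside […] (added as 300 uM solution) in G418-selected cells seeded at 2000/well and grown 16–24 h.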
CtBP-E1A inh: blocks the CtBP interaction with E1A; AID 651724; AlphaScreen GST-E1A/His-CtBP binding, 1536-well; hits give low values; control for the full effect not named in the record; hit rate 0.49% among 340,000; activity change, % (no concentration beside the values); in the data active means activity change below about -65%; inconclusive means about -30% to -65%; inactive means above about -30%; note: % is set by controls: 0 for no effect and ±100 for the full control effect; compound concentration not given in the record
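AlphaScreen with 125 nM GST-E1A and 125 nM His-CtBP (5X stocks) in Tris pH 8.0, 300 mM NaCl, BSA, Tween 20, TCEP. Compounds preincubated 2 h at 37 deg C, then glutathione donor/nickel acceptor beads added for 1 h at 37 deg C in dark.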
gsp ag: gsp mutant agonism; gsp mutant cells, cAMP HTRF, 30 min; control for the full effect not named in the record; hit rate 0.13% among 340,000; Potency, µM (series often up to 76.9 µM), for the others: at the top dose activation (cAMP increase), usual class: activators; AID 624287; active = well fitted activation curve with a large enough effect; inconclusive = small, poorly fitted or top-dose-only effect, or another doubt; inactive = no such curve, though single readings can be large or run the other way; cell line not stated here;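 note: phosphodiesterase inhibitor Ro 20-1724 added with compounds to block cAMP breakdown; potency is the fitted concentration of half-maximal effect; nearly all actives have a fitted effect of over 60% in size; about a fifth of the inactives were tested at one dose only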
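Cells in DMEM/10% FBS with G418 were pretreated with compounds in DMSO plus […] (300 uM stock) for 30 min at 37C. cAMP was measured by HTRF (cAMP-d2 plus anti-cAMP antibody-K) after 30 min at room temperature.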
D2 ag: agonists of human D2 dopamine receptor (beta-arrestin); AID 624465; P14416; hit rate 0.084% among 360,000; DiscoveRx PathHunter D2 beta-arrestin, luminescence, 90 min; 100% = 57 uM dopamine signal; activation, % (concentration not given with the values); in the data active = activation above about 40%; inconclusive = about 15% to 40%; inactive = below about 15%; note: compound concentration not given in the record; the text of the record calls up to 30% inactive
Target sequence (P14416 whole entry, looked up): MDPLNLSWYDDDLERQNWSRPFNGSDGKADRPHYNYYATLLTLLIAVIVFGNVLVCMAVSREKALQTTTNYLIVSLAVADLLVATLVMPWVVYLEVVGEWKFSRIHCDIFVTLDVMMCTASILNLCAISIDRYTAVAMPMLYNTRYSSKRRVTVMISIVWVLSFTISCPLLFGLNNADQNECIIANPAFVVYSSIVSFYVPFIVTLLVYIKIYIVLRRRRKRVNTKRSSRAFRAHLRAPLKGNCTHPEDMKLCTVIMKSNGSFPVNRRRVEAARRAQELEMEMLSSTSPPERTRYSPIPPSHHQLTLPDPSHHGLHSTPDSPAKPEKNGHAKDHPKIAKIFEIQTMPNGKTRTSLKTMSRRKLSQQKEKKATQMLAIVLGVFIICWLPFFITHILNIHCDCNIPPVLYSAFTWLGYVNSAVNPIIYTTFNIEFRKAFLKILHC
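Agonist mode: compounds alone added to overnight-plated D2 PathHunter cells for 90 min at 37 C, with 57 uM final dopamine (EC100) defining full response. Beta-arrestin recruitment detected by chemiluminescent reagent, read after 1 h at ambient temperature.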
Six1-Eya2 blk: Six1/Eya2 interaction inhibition. AlphaScreen GST-Six1/His-Eya2 binding, biochemical; hits give low values; control for the full effect not named in the record. activity change, % (test concentration not listed). hit rate 0.56% among 360,000. AID 651725; in the data active = activity change below about -65%; inconclusive = about -30% to -65%; inactive = above about -30%; note: % is set by controls: 0 for no effect and ±100 for the full control effect; compound concentration not given in the record
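Homogeneous AlphaScreen proximity assay pairing GST-Six1 with His-tagged Eya2 (added as 5X mix: 250 nM and 500 nM) in 50 mM Tris pH 8.0, 300 mM NaCl, 1 mM TCEP. Glutathione donor and nickel acceptor beads; 1 h, 37 °C, dark.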
D2 PAM: human D2 receptor positive allosteric modulation | DiscoveRx D2 beta-arrestin cells, luminescence, 90 min; 100% = 57 uM dopamine signal | potentiation, % (no concentration beside the values) | hit rate 0.23% among 360,000; active = potentiation of 50% or more; inconclusive = 30% to 50%; inactive = 30% or less;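 note: compound concentration not given in the record; tested on top of an EC20 dose of dopamine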
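PathHunter D2 cells, attached overnight at 37 deg C, received compound in DMSO plus dopamine at EC20 (50 nM final) for 90 min at 37 deg C. Beta-arrestin recruitment was read as luminescence after 1 h with detection reagent at ambient temperature.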
Active calls of the source: *; [ ] = another dose, or the depositor's remark. An unsorted share of the library. Share with any hit: about 1.4%.

How did Cc1cccc(-c2noc(CCCC(=O)NC3CCCC3)n2)c1 do in these assays?
gsp antag: -19%; CtBP-E1A inh: 0; gsp ag: -33%[inhibitor]; D2 ag: -0.5; Six1-Eya2 blk: 4; D2 PAM: -1

Results for COc1ccc(C(=O)C2CCCN(S(=O)(=O)C(C)C)C2)c(C)c1 (centres undefined) ?
gsp antag: -1%; gsp ag: 1%; D2 ag: -0.5; Six1-Eya2 blk: 2; D2 PAM: -21

How did O=C1CCCC2=C1C(c1ccsc1)CC(=O)N2c1ccccc1 (centres undefined) do in these assays?
gsp antag: 10%; CtBP-E1A inh: -3; gsp ag: 25%; D2 ag: -1.9; Six1-Eya2 blk: 2; D2 PAM: 1

How did O=C(O)COCC(=O)N1CCN(C2c3ccccc3-c3ccccc32)CC1 do in these assays?
gsp antag: 15%; CtBP-E1A inh: -27; gsp ag: 1%; D2 ag: -2.5; Six1-Eya2 blk: 9; D2 PAM: -31

How did Clc1ccc(CN2CCCCCC2)cc1Cl do in these assays?
gsp antag: -15%; CtBP-E1A inh: -7; gsp ag: 4%[15.4 µM]; D2 ag: -0.9; Six1-Eya2 blk: 29; D2 PAM: -26

How did CCC(C)NCCOCCSc1ccc(Cl)cc1 (centres undefined) do in these assays?
gsp antag: 16%; CtBP-E1A inh: -3; gsp ag: -15%; D2 ag: -2.7; Six1-Eya2 blk: 0; D2 PAM: -37

What do the screens show for `COc1ccc(OCCCC(=O)ON=C(N)c2ccccc2Cl)cc1`?
gsp antag: 4%; CtBP-E1A inh: 40; gsp ag: 1%; D2 ag: 6.7; Six1-Eya2 blk: 23; D2 PAM: 5

Results for Cc1cc(C(=O)COc2ccc(Br)cc2F)c(C)n1C1CC1 ?
gsp antag: -17%; CtBP-E1A inh: 0; gsp ag: -5%; D2 ag: -2.1; Six1-Eya2 blk: -9; D2 PAM: 0

What do the screens show for `CCN(CC)C(=O)CSc1nnc(CNc2ccc(F)cc2)n1Cc1ccco1`?
gsp antag: -6%; CtBP-E1A inh: -3; gsp ag: -32%; D2 ag: -0.9; Six1-Eya2 blk: -1; D2 PAM: -13

What do the screens show for `Cc1cc2oc(=O)cc(-c3ccccc3)c2c(C)c1-c1ccc(N(C)C)cc1`?
gsp antag: -5%; CtBP-E1A inh: -22; D2 ag: -6.9; Six1-Eya2 blk: inconclusive; D2 PAM: 3

How did Cc1cccc(OCCc2c(C)[nH]c(=S)[nH]c2=O)c1 do in these assays?
gsp antag: 8%; CtBP-E1A inh: 4; gsp ag: -8%[15.4 µM]; D2 ag: -4.0; Six1-Eya2 blk: -1; D2 PAM: -5

How did COc1ccccc1NC(=O)CSCC(N)=O do in these assays?
gsp antag: inconclusive; CtBP-E1A inh: -3; gsp ag: -31%; D2 ag: -2.4; Six1-Eya2 blk: 0; D2 PAM: -10

How did COc1cc2oc(=O)ccc2cc1[C@H](O)[C@@H](O)C(C)(C)O do in these assays?
gsp antag: -1%; CtBP-E1A inh: 4; D2 ag: 1.2; Six1-Eya2 blk: 2; D2 PAM: -7

What do the screens show for `COc1ccc(N(C)S(=O)(=O)c2ccc3c(c2)oc(=O)n3C)cc1`?
gsp antag: -6%; CtBP-E1A inh: -1; gsp ag: 16%; D2 ag: 1.8; Six1-Eya2 blk: 5; D2 PAM: -2

How did CCN(C[C@H]1N[C@@](Cc2ccccc2)(C(=O)OC)[C@H]2C(=O)N(C)C(=O)[C@@H]12)C(=O)Nc1ccc(F)cc1 do in these assays?
gsp antag: -6%; CtBP-E1A inh: 1; D2 ag: -1.7; Six1-Eya2 blk: 9; D2 PAM: -5

The final 3 records of the section before are carried over, then new ones follow:
How did COc1cc2oc(=O)ccc2cc1[C@H](O)[C@@H](O)C(C)(C)O do in these assays?
gsp antag: -1%; CtBP-E1A inh: 4; D2 ag: 1.2; Six1-Eya2 blk: 2; D2 PAM: -7

What do the screens show for `COc1ccc(N(C)S(=O)(=O)c2ccc3c(c2)oc(=O)n3C)cc1`?
gsp antag: -6%; CtBP-E1A inh: -1; gsp ag: 16%; D2 ag: 1.8; Six1-Eya2 blk: 5; D2 PAM: -2

How did CCN(C[C@H]1N[C@@](Cc2ccccc2)(C(=O)OC)[C@H]2C(=O)N(C)C(=O)[C@@H]12)C(=O)Nc1ccc(F)cc1 do in these assays?
gsp antag: -6%; CtBP-E1A inh: 1; D2 ag: -1.7; Six1-Eya2 blk: 9; D2 PAM: -5

What do the screens show for `Cc1ccc(C)c(NC(=O)CSc2nc(C)cc(C)c2C#N)c1`?
gsp antag: 35%[activator]; CtBP-E1A inh: -7; gsp ag: inconclusive; D2 ag: 0.7; Six1-Eya2 blk: 4; D2 PAM: 3

How did CCn1c(CCc2ccccc2)nc2ccccc21 do in these assays?
gsp antag: -13%; CtBP-E1A inh: 1; gsp ag: -40%[inhibitor]; D2 ag: 6.1; Six1-Eya2 blk: 5; D2 PAM: -4

How did OC(COc1ccccc1)CN1CCN(c2ncccn2)CC1 (centres undefined) do in these assays?
gsp antag: 11%; CtBP-E1A inh: -2; gsp ag: -10%; D2 ag: -0.3; Six1-Eya2 blk: 5; D2 PAM: -8

How did COCCCC1CCN(C(=O)c2cc(COc3cc(C)ccc3C)on2)CC1 do in these assays?
gsp antag: -6%; CtBP-E1A inh: 10; gsp ag: -51%[inhibitor]; D2 ag: 1.2; Six1-Eya2 blk: 2; D2 PAM: -9

What do the screens show for `CC(C)(C)C(=O)Oc1ccc2cc(-c3ccc4ccccc4n3)c(=O)oc2c1`?
gsp antag: 4%; CtBP-E1A inh: -3; gsp ag: -5%; D2 ag: -6.7; Six1-Eya2 blk: 9; D2 PAM: 2

Results for Cc1onc(-c2c(Cl)cccc2Cl)c1C(=O)c1c[nH]c(C(=O)NCCCN2CCOCC2)c1 ?
gsp antag: 11%; CtBP-E1A inh: 3; gsp ag: 12%; D2 ag: 0.8; Six1-Eya2 blk: -4; D2 PAM: -10

How did COc1ccc(-c2nnc(NC(=O)CSc3ccccc3)s2)cc1OC do in these assays?
gsp antag: 4%; CtBP-E1A inh: 13; gsp ag: inconclusive; D2 ag: -0.6; Six1-Eya2 blk: 12; D2 PAM: -9

Results for O=C(O)c1ccc(Cl)c(S(=O)(=O)NCC2CCCO2)c1 (centres undefined) ?
gsp antag: 5%; CtBP-E1A inh: -8; gsp ag: 6%; D2 ag: -4.0; Six1-Eya2 blk: -7; D2 PAM: -1

Results for O=C(N/N=C/c1cccc(O)c1)c1ccc(COc2ccc3c(c2)CCC3)o1 ?
gsp antag: -18%; CtBP-E1A inh: -8; gsp ag: -2%; D2 ag: 2.8; Six1-Eya2 blk: -18; D2 PAM: -1

What do the screens show for `CC(C)CC[n+]1ccn(-c2nc3ccccc3nc2[N-]S(=O)(=O)c2ccccc2)c1`?
gsp antag: 23%; CtBP-E1A inh: 13; gsp ag: -5%; D2 ag: -1.0; Six1-Eya2 blk: -1; D2 PAM: -2

What do the screens show for `CCOc1ccc(/C=N/NC(=O)c2ccc(CSc3nc4ccccc4[nH]3)cc2)cc1`?
gsp antag: -15%; CtBP-E1A inh: 2; gsp ag: inconclusive; D2 ag: -4.5; Six1-Eya2 blk: -1; D2 PAM: -1

What do the screens show for `Cc1[nH]n(C(N)=S)c(=O)c1N=Nc1ccc(Cl)cc1Cl`?
gsp antag: -10%; CtBP-E1A inh: 4; gsp ag: -5%; D2 ag: -7.2; Six1-Eya2 blk: 5; D2 PAM: -10

What do the screens show for `Cc1cc(C)n(CCNS(=O)(=O)c2ccc(Cl)cc2)n1`?
gsp antag: 8%; CtBP-E1A inh: -5; gsp ag: -23%; D2 ag: 0.6; Six1-Eya2 blk: -3; D2 PAM: -14

Results for c1nnnn1C12CC3CC(CC(C3)C1)C2 ?
gsp antag: 7%; CtBP-E1A inh: 3; gsp ag: 11%; D2 ag: -2.4; Six1-Eya2 blk: -1; D2 PAM: -5

Results for COc1ccc(CNC(=O)CN(C(=O)CCC(=O)Nc2ccccn2)c2ccccc2OC)cc1 ?
gsp antag: -4%; CtBP-E1A inh: 0; gsp ag: 24%; D2 ag: 2.0; Six1-Eya2 blk: 9; D2 PAM: -20

Results for CC(=O)c1ccc(N2CCN(c3ccc(S(=O)(=O)NCCN(C)C)cc3[N+](=O)[O-])CC2)cc1 ?
gsp antag: 6%; CtBP-E1A inh: 7; gsp ag: -32%[inhibitor]; D2 ag: -2.5; Six1-Eya2 blk: 1; D2 PAM: -12

Results for O=C(O)c1ccccc1C(=O)Nc1cccc([N+](=O)[O-])c1 ?
gsp antag: 8%; gsp ag: 1%; D2 ag: -1.8; Six1-Eya2 blk: 3; D2 PAM: -17

How did CCOC(=O)N1CCN(C(=O)c2ccc(Cn3c(=S)[nH]c4cc(C(=O)OC)ccc4c3=O)cc2)CC1 do in these assays?
gsp antag: inconclusive; gsp ag: -9%; D2 ag: 3.9; Six1-Eya2 blk: 0; D2 PAM: 3

How did O=C(Cn1nnc2ccccc2c1=O)NCc1ccc(Cl)cc1 do in these assays?
gsp antag: -9%; CtBP-E1A inh: 2; gsp ag: 16%[15.4 µM]; D2 ag: -7.6; Six1-Eya2 blk: 8; D2 PAM: -3

Results for CCc1ccc(C(=O)Nc2cc3c(cc2Cl)OCCCO3)cc1 ?
gsp antag: inconclusive; CtBP-E1A inh: 6; gsp ag: -2%; D2 ag: -5.8; Six1-Eya2 blk: 7; D2 PAM: -21

How did O=C(CSc1ncn[nH]1)c1ccc2c(c1)OCCO2 do in these assays?
gsp antag: -12%; CtBP-E1A inh: 4; gsp ag: 7%; D2 ag: 3.2; Six1-Eya2 blk: 2; D2 PAM: 5

What do the screens show for `Cc1noc(C)c1C(=O)N1CCc2ccccc2C1`?
gsp antag: 9%; CtBP-E1A inh: -5; gsp ag: 24%; D2 ag: -1.2; Six1-Eya2 blk: 0; D2 PAM: -8

What do the screens show for `Cc1ccc(NS(=O)(=O)c2cc(NC(=O)c3cc(=O)[nH]c(=O)[nH]3)ccc2Cl)c(C)c1`?
gsp antag: -19%; CtBP-E1A inh: -14; gsp ag: 27%; D2 ag: 2.2; Six1-Eya2 blk: 0; D2 PAM: -2

Results for O=C(NCCC(c1ccccc1)c1ccccc1)c1cccs1 ?
gsp antag: inconclusive; CtBP-E1A inh: 2; gsp ag: 9%[15.4 µM]; D2 ag: -4.4; Six1-Eya2 blk: 0; D2 PAM: -4

Results for COc1ccc(COC(=O)C2CCN(S(=O)(=O)c3ccc(C)cc3)CC2)cc1 ?
gsp antag: 3%; CtBP-E1A inh: 19; gsp ag: -23%; D2 ag: 4.3; Six1-Eya2 blk: 10; D2 PAM: 5

Results for COc1ccc(NC2CCCN(C(=O)c3ccccc3C(F)(F)F)C2)cc1 (centres undefined) ?
gsp antag: -1%; CtBP-E1A inh: -2; gsp ag: -3%; D2 ag: -4.1; Six1-Eya2 blk: -6; D2 PAM: 1

Source: PubChem BioAssay (National Center for Advancing Translational Sciences (NCATS))
